Env fusion inh: inhibitors of HIV-1 Env-driven cell-cell fusion, primary screen, HeLa-JRFL effector, CEM21 target cells, luciferase; AID 651610, 2012; inhibition, % at 12.3 µM; 1.1% of 360,000 active;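 active = mean replicate inhibition score of at least 50 and every replicate individually at or above 50; inconclusive = only one of the two criteria met; inactive = mean below 50 and not all replicates reaching 50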;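 note: 0% = plate neutral controls and 100% = maraviroc near 300 nM; one replicate is shown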
PABP polyA inh: PABP poly(A) RNA binding inhibitors, primary screen, biochemical, fluorescence polarization, uHTS; inhibition, % at 35 µM; AID 2014, 2009; 1% of 290,000 active; Polyadenylate-binding protein 1 (Homo sapiens), P11940;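 active = 50% or more with normal probe brightness, or confirmed in later tests; inconclusive = above 50% with abnormal brightness, or retests that disagree; inactive = below 50% or failed in later tests; about a fifth of its hits are not listed in these tables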;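 note: calls also rest on retests at 20 µM and on dose response follow-up; controls were probe without protein and protein plus probe with vehicle; some compounds called inactive have numbers as strong as hits; many hits fall short of the cut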
Target sequence (P11940 whole entry, looked up): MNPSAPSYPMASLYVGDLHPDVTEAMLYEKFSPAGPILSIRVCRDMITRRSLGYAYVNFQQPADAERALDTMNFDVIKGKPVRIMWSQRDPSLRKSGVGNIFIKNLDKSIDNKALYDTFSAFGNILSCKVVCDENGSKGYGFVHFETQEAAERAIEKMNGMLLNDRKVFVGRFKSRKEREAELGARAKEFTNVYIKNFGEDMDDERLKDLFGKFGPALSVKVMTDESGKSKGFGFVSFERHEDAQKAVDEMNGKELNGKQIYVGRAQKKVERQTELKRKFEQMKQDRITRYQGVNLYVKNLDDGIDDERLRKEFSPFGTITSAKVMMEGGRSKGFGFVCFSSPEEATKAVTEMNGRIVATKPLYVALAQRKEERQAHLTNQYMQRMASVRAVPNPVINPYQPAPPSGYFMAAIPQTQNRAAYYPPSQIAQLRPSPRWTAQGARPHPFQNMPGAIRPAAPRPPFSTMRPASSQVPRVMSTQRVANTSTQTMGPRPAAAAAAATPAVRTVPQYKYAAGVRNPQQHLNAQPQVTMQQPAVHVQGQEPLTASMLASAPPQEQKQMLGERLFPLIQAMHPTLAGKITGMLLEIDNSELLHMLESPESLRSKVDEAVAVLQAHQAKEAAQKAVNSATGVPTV
CSC inhib: cancer stem cell viability inhibitors, primary screen, luminescence | 1.1% of 300,000 active | inhibition, % at 7.5 µM | cancer stem cell-like cells viability;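 active = mean at 75% or more and at least half the replicates too; inconclusive = mean and replicates disagree; tested in HMLE shEcad cells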;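 note: 0% = median of negative and 100% = median of positive control wells; the first replicate is given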
Yeast UUG start: modulators of yeast start codon fidelity, primary screen, whole organism, S. cerevisiae, single point, plate reader | activity score, % at 18.7 µM | S. cerevisiae UUG-firefly luciferase reporter, luminescence/redox ratio | AID 602363, 2012 | 0.13% of 350,000 active;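 active = replicate mean at a twofold rise or more, about +100% in these data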;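 note: firefly luciferase made from a UUG start codon reports start codon fidelity; reporter light over untreated wells divided by growth signal over untreated wells; some hits fall short of that in this replicate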
eIF4H FP inh: human eIF4H binding inhibitors, primary screen, translation initiation inhibitor project, biochemical, uHTS, fluorescence polarization. inhibition, % at 35 µM. AID 2012, 2009. eIF4H fluorescence polarization binding assay. 0.94% of 290,000 active. Eukaryotic translation initiation factor 4H (Homo sapiens), Q15056;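 active = 50% or more with normal probe brightness, or confirmed in later tests; inconclusive = above 50% with abnormal brightness, or retests that disagree; inactive = below 50% or failed in later tests; about a fifth of its hits are not listed in these tables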;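 note: calls also rest on retests at 20 µM and on dose response follow-up; 0% = protein and probe with vehicle and 100% = probe without protein; strong numbers were not always called active; many hits fall short of the cut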
Rce1 inh: yeast Rce1p protease inhibitors, primary screen, biochemical, fluorescence, cell-free homogeneous; CAAX prenyl protease 2 (Saccharomyces cerevisiae (strain ATCC 204508 / S288c)), Q03530; yeast membranes, quenched prenylated peptide cleavage fluorescence; calls only; 0.27% of 290,000 active;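 active = fall in fluorescence gain of 50% or more versus controls, with final raw signal at or below 3038400; inconclusive = same 50% fall but final raw signal above 3038400; inactive = fall in fluorescence gain under 50%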;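 note: plate controls were neutral control wells for no effect and wells lacking membranes for full effect; tested at 10 µM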
Target sequence (Q03530 whole entry, looked up): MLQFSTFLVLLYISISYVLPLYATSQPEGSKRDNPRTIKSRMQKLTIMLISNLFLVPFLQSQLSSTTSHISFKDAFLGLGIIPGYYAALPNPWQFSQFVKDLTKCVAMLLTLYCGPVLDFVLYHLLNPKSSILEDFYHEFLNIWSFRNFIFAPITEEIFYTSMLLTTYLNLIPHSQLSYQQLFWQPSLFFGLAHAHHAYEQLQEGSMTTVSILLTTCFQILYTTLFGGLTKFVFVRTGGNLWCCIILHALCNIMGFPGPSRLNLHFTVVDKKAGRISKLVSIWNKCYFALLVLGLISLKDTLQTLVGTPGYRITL
MT1-MMP act inh: blockers of MT1-MMP proenzyme processing, primary screen, HT1080 RFP-PRO-GFP cells, GFP/RFP fluorescence | Matrix metalloproteinase-14 (Homo sapiens), P50281 | GFP/RFP ratio fluorescence, overnight; percent of plate control window, DMSO zero | GFP/RFP ratio change, % at 20 µM | 0.061% of 360,000 active | AID 651647, 2012;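 active = GFP/RFP ratio change of at least 30% with cell ATP level not reduced by more than half and red fluorescence within 50% of control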; note: strong numbers were not always called active
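Compound: 20 µM single dose, 1% DMSO / System: HT1080 RFP-PRO-GFP cells / Controls: DMSO and RFP-L50D-GFP cell wells / Read-out basis: GFP/RFP fluorescence ratio / Schedule: overnight compound exposure at 37 °C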
eIF4H FP inh retest: recorded beside eIF4H FP inh, whose call it bears; inhibition, %; compound at 20 µM; confirmation average;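 mean of two retest wells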
PABP polyA inh retest: also measured in PABP polyA inh; calls as there; inhibition, %; compound at 20 µM; confirmation repeats;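 mean of two retest wells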
MT1-MMP act inh RFP: also measured in MT1-MMP act inh; calls as there; RFP signal change, %; measured here: RFP expression control read;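 0 = vehicle wells; hits needed this value within 50% of zero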
Active calls of the source: *; i = inactive; ? = inconclusive; nt = not tested or not shown; & = joins results of further samples; [ ] = remark or other dose. Outcome played no part in choosing rows; overall some 3% were active at least once.

SMILES	Env fusion inh	PABP polyA inh	CSC inhib	Yeast UUG start	eIF4H FP inh	Rce1 inh	MT1-MMP act inh	MT1-MMP act inh RFP	others
N#CCCN(C(=O)COC(=O)CCc1c[nH]c2ccccc12)c1ccccc1	-28	nt	2	nt	nt	i	0	-1
CCOC(=O)c1cc2c(c(-c3cccc(-c4cc5ccccc5o4)c3)n1)[C@@H](CCO)N(S(=O)C(C)(C)C)C2 (stereo partly drawn)	10	nt	nt	-14	nt	nt	0	1
CCC(C)n1c(SCC(=O)NCCc2ccc(S(N)(=O)=O)cc2)nc2ccsc2c1=O (stereo not drawn)	22	10	-11	nt	1	i	3	5
Cc1nn(C(=O)Cn2cc([N+](=O)[O-])cn2)c(C)c1Cl	2	72	-27	-3	-4	i	3	3	eIF4H FP inh retest=-4;PABP polyA inh retest=10
OCCNc1ncnc2c1c(-c1ccccc1)c(-c1ccccc1)n2Cc1ccco1	14	6	-27	-6	5	i	-11	-9
O=C(CN1C(=O)/C(=C/c2ccc(F)cc2)SC1=S)NC1C=CS(=O)(=O)C1 (stereo not drawn)	2	-9	-4	-20	-7	i	3	0
Cc1cccc(N(C)C(=O)C2CCCN2S(=O)(=O)c2cccc3nsnc23)c1 (stereo not drawn)	-4	2	-13	-13	-7	i	-6	1
COc1ccccc1N1CCN(CCCCN2C(=O)C3CCCCN3C2=O)CC1 (stereo not drawn)	nt	-3	-3	8	-3	i	-3	-5
Nc1nc2ccccc2n1C(=O)c1ccco1	-87	-10	nt	nt	-5	i	3	2
Cc1cc(=O)n2nc(N3CCC(C(=O)NCc4cccnc4)CC3)sc2n1	nt	-12	-7	-18	-8	i	-2	1
CC(C)(C)C(=O)Nc1ccccc1C(=O)Nc1cc(Cl)ccc1Cl	-19	4	10	-17	-6	i	-4	-2
COc1ccccc1N1CCN(C(=O)C2CCN(C(=O)c3ccc(C(C)(C)C)cc3)CC2)CC1	4	-6	-22	8	-1	i	3	-5
CN(CC(=O)NCC1CCCCC1)S(=O)(=O)c1ccc(F)cc1	4	5	-9	-16	23	i	-2	0
CCOC(=O)c1c(NC(=O)CCc2ccc(CC)o2)sc(C)c1C	23	-1	8	-11	-4	i	0	-1
NC(=O)NC(=O)COC(=O)c1cccc(S(=O)(=O)N2CCCCCC2)c1	12	-11	-25	nt	-11	i	0	-1
Cc1nc2cc(-c3ccccc3)nn2c(N)c1-c1ccccc1	-205	nt	nt	-15	nt	nt	0	1
CCN(CC)CCNC(=S)N1CCn2c(nc3ccccc32)C1	0	10	nt	-8	-9	i	2	3
O=C1CSC(c2ccc(F)cc2)N1c1ccccc1F (stereo not drawn)	-3	-7	1	3	-9	i	1	2
CSCCC(NC(=O)COc1cccc2ccccc12)C(=O)O (stereo not drawn)	-16	-2	-7	-26	-9	i	0	4
COc1c(Br)cc(/C=N/n2c(-c3ccccc3)n[nH]c2=S)c(O)c1Br	-1	5	-6	-9	2	i	4	6
COc1ccccc1/C=C/C(=O)OCC(=O)c1c[nH]c2ccccc12	3	nt	nt	-15	nt	nt	1	0
CCOc1ccccc1OCC(=O)Nc1nnc(COC)s1	?	9	5	-22	-7	nt	5	0
COc1cccc(CNC(=O)CCCc2cn(C)c3ccccc23)c1	9	6	-2	-10	5	i	2	1
CC(C)C(=O)N[C@H]1CCC2C3CC=C4C[C@@H](O)CC[C@]4(C)C3CC[C@@]21C (stereo partly drawn)	6	nt	-12	-21	nt	nt	2	2
CN1CCN(CCCNC(=O)c2ccc3c(Cl)c4c(nc3c2)CCCC4)CC1	6	10	-18	-15	8	i	-1	-1
Further entries:
SMILES	Env fusion inh	PABP polyA inh	CSC inhib	Yeast UUG start	eIF4H FP inh	Rce1 inh	MT1-MMP act inh	MT1-MMP act inh RFP	others
CCOCCCNC(=O)c1ccccc1SCC	-10	-16	-8	-1	0	i	1	0
COc1ccc(CNc2ncnc3cc(OC)c(OC)cc23)cc1OC	10	-5	-5	nt	0	i	4	2
O=C(Cn1cnc2ccccc2c1=O)N1CCN(c2ccccc2)CC1	-32	-6	-4	3	0	i	4	6
C/C(=N/NC(=O)c1cc(O)c(O)c(O)c1)c1ccc([N+](=O)[O-])cc1	-2	6	nt	nt	33	i	7	2
Cn1c(CN(O)S(=O)(=O)c2ccc(Cl)cc2)nnc1C(F)(F)F	0	6	-11	15	-1	i	0	1
CCCNC(=O)c1cc(C2CCCN(C(=O)C3CC3)C2)on1 (stereo not drawn)	-117	nt	nt	-2	nt	nt	3	5
COc1ccc2c(c1)-c1nc(NC(=O)c3ccco3)sc1CC2	-50	9	21	-10	7	i	-2	-4
COC(=O)c1ccc(NC(=O)Nc2ccc(F)cc2F)cc1	-7	-7	nt	-10	-8	nt	-3	-9
O=C(C(c1ccccc1)N1CCOCC1)N1CCOCC1 (stereo not drawn)	nt	4	-9	nt	-2	i	0	3
O=C(C1=C[C@H](c2ccc(C(F)(F)F)cc2)C[C@H](OCc2ccc(CO)cc2)O1)N1CCOCC1	-2[16.7 µM]	-2	-11	4&-9	5	i	1	-3
O=C(OCC(=O)N1CCOCC1)c1ccccc1SCC(=O)N1CCCC1	nt	2	-5	-6	-3	i	2	4
CCOC(=O)c1sc(-c2ccccn2)nc1C	-21	8	3	nt	-6	i	-3	2
COC(=O)c1cc(NS(=O)(=O)c2ccc(NC(C)=O)cc2)ccc1Cl	0	-1	-5	8	-7	i	2	-8
CC(=O)c1c(N2CCCCC2)nc(=O)n(-c2ccccc2)c1C	nt	3	3	-6	15	i	-2	1
O=c1c(Cc2ccc(F)cc2)c(O)ccn1Cc1ccco1	9	4	1	nt	4	i	-11	1
Cc1ccc(C(C)C)c(OCc2ccc(C(=O)N/N=C/c3ccc(O)cc3O)cc2)c1	-8	-8	101*	nt	18	i	-5	-11
Cc1c(-n2c(-c3ccccc3Cl)n[nH]c2=S)c(=O)n(-c2ccccc2)n1C	-12	10	-10	-18	-3	i	3	3
C1N2CN3CN1CN(C2)C3	29	nt	2	2	nt	nt	-3	1
Cc1ccc(S(=O)(=O)N2CCN(C(=O)COC(=O)C3(C)CC3(Cl)Cl)CC2)c(C)c1 (stereo not drawn)	0	nt	-3	-4	nt	nt	0	-1
CCCCCN(C(=O)CCC(=O)OCc1cccc(Br)c1)c1c(N)n(CCCC)c(=O)[nH]c1=O	-35	nt	0	-12	nt	i	-15	-13
COC(=O)NC(NS(=O)(=O)c1ccccc1)(C(=O)OC)C(F)(F)F (stereo not drawn)	-31	0	-8	nt	0	i	4	2
Cc1ccccc1C(=O)N1CCC(C(=O)Nc2ccc3c(c2)OCCO3)CC1	16	2	-14	-10	-5	i	1	2
CC(=O)Nc1cccc(NC(=O)CSc2nccn2Cc2ccc(F)cc2)c1	3	4	-37	-20	-5	i	4	-5
CCOC(=O)CCCCC(=O)c1[nH]c(=O)[nH]c1CSc1nc(-c2ccccc2)c(C#N)c(=O)[nH]1	nt	24	0	-19	0	i	-9	-3
O=S1(=O)CCO[C@H]2Cc3ccccc3[C@H]2N1Cc1cccc(F)c1	2	4	-3	-5	7	i	6	2

Overlap with the part before: four entries, followed by the next part.
SMILES	Env fusion inh	PABP polyA inh	CSC inhib	Yeast UUG start	eIF4H FP inh	Rce1 inh	MT1-MMP act inh	MT1-MMP act inh RFP	others
Cc1ccccc1C(=O)N1CCC(C(=O)Nc2ccc3c(c2)OCCO3)CC1	16	2	-14	-10	-5	i	1	2
CC(=O)Nc1cccc(NC(=O)CSc2nccn2Cc2ccc(F)cc2)c1	3	4	-37	-20	-5	i	4	-5
CCOC(=O)CCCCC(=O)c1[nH]c(=O)[nH]c1CSc1nc(-c2ccccc2)c(C#N)c(=O)[nH]1	nt	24	0	-19	0	i	-9	-3
O=S1(=O)CCO[C@H]2Cc3ccccc3[C@H]2N1Cc1cccc(F)c1	2	4	-3	-5	7	i	6	2
O=C(Nc1cccnc1Cl)c1cc([N+](=O)[O-])ccc1Cl	-5	-1	-2	13	-3	i	-4	-5
COc1ccc(NC(=O)C2CCC(C)(C(=O)O)C2(C)C)cc1 (stereo not drawn)	nt	4	-2	-6	8	i	1	4
CCOC(=O)C1/C(=N\O)CC(C)(O)C(C(=O)OCC)C1c1ccc(OC)c(OC)c1 (stereo not drawn)	nt	-5	-4	10	-8	i	4	12
COC(=O)c1cc2ccc(OC)cc2c2cc(OC)c(OC)cc12	-6	nt	62	-24	nt	nt	1	-4
COc1ccc(-c2nnc(SCC(=O)OC3CCCCC3)o2)cc1OC	-28	0	-1	-21	-6	i	2	5
CCCc1nnc(SCC(=O)Nc2ccc(OC)cc2)o1	4	2	-8	-7	-7	i	2	4
Cc1ccc(OCCC(=O)Nc2ccccc2C(=O)NC2CC2)cc1	nt	-6	-16	-15	8	i	nt	nt
Nc1cc(N)nc(SCC(=O)Nc2ccccc2N2CCOCC2)n1	1	-9	5	-12	-8	i	1	2
Cc1cccc(/C=N\NC(=O)c2ccccc2-n2cccc2)c1	3	24	nt	-11	-11	i	-3	-3
CC(C)CN(CCCNC(=O)CN1C(=O)COc2ccc(S(=O)(=O)N3CCCC3)cc21)CC(C)C	0	1	-8	nt	-1	i	-4	2
CCC1c2ccc(C)n2CCN1C(=O)Nc1ccccc1C(=O)OC (stereo not drawn)	nt	125*	-4	nt	132	i	-17	9	eIF4H FP inh retest=37;PABP polyA inh retest=52*
CN1CCN(C(=O)C2CC(=O)N(c3ccc(Cl)cc3)C2)CC1 (stereo not drawn)	12	25	-5	3	0	i	3	2
Cc1ccc(NC(=O)[C@@]2(CC(=O)O)CC(/C=C/c3ccccc3)=NO2)c(C)c1	-9	0	-8	-11	-3	i	2	6
O=C(O)CN(C1CCCCC1)S(=O)(=O)c1ccc(F)cc1	-57	-8	-28	nt	-10	i	-1	1
CCOC(=O)N1CCC(N2Cc3cccc(C(=O)NCc4ccc(C)cc4)c3C2=O)CC1	?	0	nt	-7	-4	i	-6	-9
Clc1ccc(Cc2nnc(-c3ccccc3Br)o2)cc1	-22	-3	-3	-24	-8	i	3	1
CNC(=O)NC(=O)C(C)OC(=O)c1ccc(Cl)c(S(=O)(=O)Nc2ccc(F)cc2)c1 (stereo not drawn)	0	1	-19	-10	-8	i	-15	-3
CC1CCCC(NC(=O)CNCc2ccccc2F)C1C (stereo not drawn)	11	-6	-10	nt	1	i	-3	-1
N#Cc1ccc(Sc2nc3ccccc3[nH]2)cc1C#N	-42	-1	16	-19	-1	i	3	4
Cc1ccc(NC(=O)C2OCCc3ccccc32)cc1C (stereo not drawn)	-30	8	2	11	6	i	0	0
COc1ccc(/C=c2\sc3nc(=O)c(C)nn3c2=O)c(OC)c1	-4	18	-17	nt	57	i	-2	-2	eIF4H FP inh retest=-2;PABP polyA inh retest=4
O=C(O)c1cn[nH]c1-c1cccc([N+](=O)[O-])c1	-8	-12	nt	nt	98*	i	3	7	eIF4H FP inh retest=60*;PABP polyA inh retest=41

Screens from PubChem BioAssay.
